NPYLR7 ag – activates Aedes aegypti NPYLR7 receptor; HEK293T NPYLR7/Galpha15, GCaMP6s calcium fluorescence; activation, % at 10 µM; 270,000 compounds, 0.15% hits; AID 1259423; in the data active means activation above about 40%;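 further: 0% = vehicle and 100% = reference agonist at the receptor; some compounds past the cut are filed as inactive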
NPYLR7 ag max-min – recorded beside NPYLR7 ag, whose call it bears; activation, %; measured here: Max-Min RFU normalised activation; some inactives read as strong as hits;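 span of the calcium signal over five minutes; 0% = vehicle and 100% = native peptide agonist; compound fluorescence can raise it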
The depositor's hits bear a star.

SMILES | NPYLR7 ag | NPYLR7 ag max-min
CC(=O)Nc1ccc(CNC(=O)CNCC2CCCO2)cc1 (stereo not given) | 1.2 | -1.8
COc1ccc(Br)cc1-c1nc(C)c(C(C)=O)s1 | -5.9 | -4.8
C=CCn1c(SCC(=O)Nc2ccccc2OC)nc2ncccc2c1=O | 9.2 | 3.9
CCn1c(C)cc(O)c(C(c2ccccn2)N2CCN(C)CC2)c1=O (stereo not given) | 3.0 | -0.4
CN(C)c1cc(C(=O)NC(c2ccccc2)C2CCCC2)ccn1 (stereo not given) | -1.3 | -1.8
CCn1c(=O)c2c(nc3n(-c4ccc(S(N)(=O)=O)cc4)c(C)c(C)n23)n(C)c1=O | 0.7 | 6.4
COc1ccc(N2C(=O)CSC2c2ccc(NC(=O)c3cccs3)cc2)cc1 (stereo not given) | 3.4 | 7.7
Cc1ccccc1Nc1nc2nonc2nc1N1CCOCC1 | -8.8 | -14.4
COc1cc(C(=O)N2CCC(n3nc(C(C)C)cc3C(C)C)CC2)cc(OC)c1OC | 13.7 | 8.7
CC(=O)Nc1cccc(C(=O)NC(C)c2ccc(C)cc2C)c1 (stereo not given) | -6.1 | -6.2
O=C(CN1C(=O)c2ccccc2C1=O)Oc1ccc([N+](=O)[O-])cc1 | -4.1 | -10.3
CCS(=O)(=O)N1CCN(c2cc(CN)nc(C)n2)CC1 | 20.9 | 17.8
COC(=O)[C@@H](C)NC(=O)[C@H]1CN(S(=O)(=O)c2ccccc2)CCN1C(=O)NC1CCCCC1 | -6.7 | -14.5
CCC(C(=O)N(Cc1ccc(F)cc1)Cc1nc2cc(Cl)ccc2o1)c1ccccc1 (stereo not given) | 15.2 | 21.4
O=C(CC1COCCN1)NCc1ccc(N2CCCC2=O)cc1 (stereo not given) | -3.9 | -3.9
CCCS(=O)(=O)N1CCc2c(nc(-c3ccncc3)nc2N(C)C)C1 | 7.3 | 3.4
COc1cc(C#N)cc(Cl)c1OC | -8.4 | -13.1
CCOc1ccc(N2C(=O)CSC2c2cccc(F)c2)cc1 (stereo not given) | -8.0 | -11.3
C=C(C)COc1ccc(C(=O)NCCc2nc(C)c3c(n2)CCC3)cc1 | 15.1 | -0.4
COc1cccc(C(=O)Oc2ccc(-c3nc4cc(C)ccn4c3NC3CCCCC3)cc2)c1 | 0.1 | 1.9
Cc1ccccc1C(=O)NCCn1nc(-c2ccncc2)ccc1=O | 10.0 | 1.7
COc1cccc([C@@H](C)Nc2nncc(-c3ccccc3)n2)c1 | -0.1 | -1.4
Cc1ccoc1C(=O)N1CCC2(CCCN(CCc3ccccc3)C2)C1 (stereo not given) | -3.7 | -6.8
CCC(C)c1ccc(NC(=O)CN2CC3(CCNCC3)OC2=O)cc1 (stereo not given) | -0.2 | 16.6
CCc1cc(=O)n(CC(=O)Nc2ccccc2)c(-n2nc(C)cc2C)n1 | -0.5 | -2.7
CCOC(=O)C1(CCc2ccccc2)CCCN(C(=O)CCc2cnn(C)c2)C1 (stereo not given) | 6.0 | 3.6
CNC(=O)C(C)Sc1nnc(-c2ccccc2)c2ccccc12 (stereo not given) | -9.5 | -8.2
Cc1ccc(OCC(=O)c2ccc3c(c2)N(C(C)C(=O)O)C(=O)CO3)c(C)c1 (stereo not given) | 8.0 | 4.2
CC(C)c1nccn1C(C)C(=O)N(C)Cc1n[nH]c2c1CCCCC2 (stereo not given) | 5.5 | 24.9
O=C(/C=C/c1cnn(-c2ccccc2)c1)NC1CCS(=O)(=O)C1 (stereo not given) | 6.7 | 3.9
NC(=O)CCn1ccc(NCc2ccsc2)n1 | -1.8 | -3.1
Cc1cc(NC(=O)Cn2c(=CC(=O)C(C)(C)C)sc(=Cc3cccs3)c2=O)no1 | -1.4 | -2.4
COc1ccc2c(CN(C)Cc3cccc4ncccc34)[nH]nc2c1 | 3.5 | 3.6
CC1(C)[C@]2(C(=O)NCc3ccccc3-n3ccnc3)CC[C@@]1(C)OC2=O | -0.8 | -5.0
CNC(=O)c1cc(Nc2nnc(-c3ccc(C)c(S(=O)(=O)NC)c3)c3ccccc23)ccc1OC | -21.4 | -25.9
O=C(NCCCn1ccnc1)C1CCCN(C2CCN(C(=O)C3CC3)CC2)C1 (stereo not given) | 2.4 | -8.0
CCN1C(=O)CN([C@@H]2C[C@@H]3CO[C@H](c4ccccc4)C[C@@H]3C2)C1=O | 30.8 | 38.6
CN(C)CC1(O)CCN(C(=O)CCc2c[nH]c3ccccc23)C1 (stereo not given) | 14.9 | 12.3
CCOC(=O)c1ccc(N(CN2C(=O)c3ccc(Br)cc3C2=O)C(C)=O)cc1 | -12.0 | -14.2
Cc1ccc(C(=O)Nc2ccc(N3CCN(C(=O)c4cccc(F)c4F)CC3)nc2)cc1 | 21.0 | 13.0
Cc1cccc(-n2ccnc2CN2CCCC(Nc3ccc4c(c3)OCO4)C2)c1 (stereo not given) | 5.1 | 4.2
O=C(NCc1ccc(F)cc1)c1nnc(Cn2ccnc2)s1 | -4.8 | -5.2
Cc1n[nH]c(C)c1CNC(=O)C1(N(C)Cc2ccccc2)Cc2ccccc2C1 | 1.8 | -0.9
CC(=O)c1c(C)oc2ccc(N(C(=O)c3ccncc3)S(=O)(=O)c3cc(C)c(C)cc3C)cc12 | 2.4 | 0.1
O=C(NCc1ccc(Cl)cc1)NNC(=O)c1cccn(Cc2cccc(F)c2)c1=O | 4.9 | 1.4
Cc1nn(C)c(C)c1NC(=O)COc1ccc(F)cc1Cl | 4.6 | 4.2
COc1ccc(C(=O)N(Cc2ccccc2)C2CCC(NC(=O)C3CCN(C(=O)c4ccc(Cl)cc4)CC3)CC2)cc1 (stereo not given) | 3.0 | 11.0
Cc1cc(C)cc(S(=O)(=O)NCCn2nc(-c3ccc(Cl)cc3)ccc2=O)c1 | -3.0 | -2.3

Reformatted as comma-separated lines: four of the compounds above
Compound,NPYLR7 ag,NPYLR7 ag max-min
O=C(NCc1ccc(Cl)cc1)NNC(=O)c1cccn(Cc2cccc(F)c2)c1=O,4.9,1.4
Cc1nn(C)c(C)c1NC(=O)COc1ccc(F)cc1Cl,4.6,4.2
COc1ccc(C(=O)N(Cc2ccccc2)C2CCC(NC(=O)C3CCN(C(=O)c4ccc(Cl)cc4)CC3)CC2)cc1 (stereo not given),3.0,11.0
Cc1cc(C)cc(S(=O)(=O)NCCn2nc(-c3ccc(Cl)cc3)ccc2=O)c1,-3.0,-2.3

Some of these compounds in order of count of non-hydrogen atoms, falling:
SMILES | NPYLR7 ag | NPYLR7 ag max-min
CCC(C(=O)N(Cc1ccc(F)cc1)Cc1nc2cc(Cl)ccc2o1)c1ccccc1 (stereo not given) | 15.2 | 21.4
Cc1cccc(-n2ccnc2CN2CCCC(Nc3ccc4c(c3)OCO4)C2)c1 (stereo not given) | 5.1 | 4.2
CN(C)c1cc(C(=O)NC(c2ccccc2)C2CCCC2)ccn1 (stereo not given) | -1.3 | -1.8
O=C(/C=C/c1cnn(-c2ccccc2)c1)NC1CCS(=O)(=O)C1 (stereo not given) | 6.7 | 3.9
CCOc1ccc(N2C(=O)CSC2c2cccc(F)c2)cc1 (stereo not given) | -8.0 | -11.3
CCS(=O)(=O)N1CCN(c2cc(CN)nc(C)n2)CC1 | 20.9 | 17.8
NC(=O)CCn1ccc(NCc2ccsc2)n1 | -1.8 | -3.1

Additional entries follow.
SMILES | NPYLR7 ag | NPYLR7 ag max-min
CCCCCCCCCC(=O)NC1CC2CCC(C1)N2Cc1ccc(OC)cc1OC (stereo not given) | 4.1 | 13.7
Cc1cc(Oc2ccc(Cl)c(C)c2)nc(SCc2ccccc2C)n1 | -1.1 | -1.7
CC(C)(C)C(=O)OCOC(=O)[C@@H]1N2C(=O)[C@@H](N=CN3CCCCCC3)[C@H]2SC1(C)C | 4.8 | -8.1
O=C(NC(c1cccnc1)C(F)(F)F)c1ccc2oc(CCCc3ccccc3)nc2c1 (stereo not given) | -2.5 | -6.0
CC(C)(C)c1cn2nc(N3CCC4C(CCC(=O)N4C4CC4)C3)sc2n1 (stereo not given) | -3.5 | -4.0
CN(CCCN1CCOCC1)C(=O)c1cc(COc2cncc(Cl)c2)on1 | -0.1 | -2.6
Cc1ccc(CN2CC(O)CN(S(=O)(=O)c3ccc(C)cc3)CC2=O)cc1 (stereo not given) | 24.8 | 24.3
Cc1ccc(NC(=O)CCN2C(=O)c3ccccc3C2=O)c(Br)c1 | 5.9 | 4.2
CC(Sc1nc2c3ccccc3ncn2n1)C(=O)NC(C)(C)C (stereo not given) | 10.1 | 2.9
O=C(CC1C(=O)NCCN1Cc1cccc(F)c1F)NCCn1ccc2ccccc21 (stereo not given) | 8.4 | 8.6
O=C(CSc1nc2ccccc2[nH]1)N1CCCCCCC1 | -5.2 | -9.0
CC(C)NC(=O)CSc1nc2c(-c3ccccc3)c[nH]c2c(=O)n1C1CC1 | -0.1 | -4.3

2 compounds picked at random from the list so far:
SMILES | NPYLR7 ag | NPYLR7 ag max-min
Cc1cc(Oc2ccc(Cl)c(C)c2)nc(SCc2ccccc2C)n1 | -1.1 | -1.7
COc1ccc(C(=O)N(Cc2ccccc2)C2CCC(NC(=O)C3CCN(C(=O)c4ccc(Cl)cc4)CC3)CC2)cc1 (stereo not given) | 3.0 | 11.0

Continued:
SMILES | NPYLR7 ag | NPYLR7 ag max-min
NCCS(=O)O | -2.1 | -25.9
CC(C)c1nn(CC(=O)Nc2ccccc2)c(=O)c2c1cnn2-c1ccccc1 | 6.4 | 0.9
CC(=O)c1ccc(NC(=O)c2c(-c3ccccc3)noc2C)cc1 | 0.7 | -1.1
C=CCN(CC(=O)N1CCc2sccc2C1c1ccc(Cl)cc1Cl)S(=O)(=O)c1ccc(F)cc1 (stereo not given) | 8.3 | 18.6
FC(F)(F)CCc1ccnc(NCc2cc(-c3ccco3)on2)n1 | 1.1 | -0.8
CCNC(=O)C1(C)CCCN1C(=O)c1ccno1 (stereo not given) | 1.0 | -1.1
O=C(NCCNC1CCC2(CCNCC2)CC1)c1ccc(F)cc1 | -5.7 | -13.3
CCc1nc(C)nc(N2CCN(S(C)(=O)=O)CC2)c1Cc1ccccc1F | 32.7 | 27.4
CCCN(CC(=O)N1CC(=O)N(c2ccc(Cl)cc2)C1)S(=O)(=O)c1ccc(OC)cc1 | 3.5 | 1.4
CC(=C\c1ccccc1)/C=C1/N=C(c2ccc([N+](=O)[O-])cc2)OC1=O | -1.5 | -7.0
O=C(Nc1ccc(C(=O)N2CCCC3CCCCC32)cc1)c1ccccn1 (stereo not given) | 3.8 | -0.2
CC(C)(C)c1ccc2c(c1)CC(CNC(=O)c1ccccc1F)O2 (stereo not given) | 2.7 | 3.6

Full records as entered above. Order of screens: NPYLR7 ag	NPYLR7 ag max-min
FC(F)(F)CCc1ccnc(NCc2cc(-c3ccco3)on2)n1 across the screens: 1.1	-0.8
CCCN(CC(=O)N1CC(=O)N(c2ccc(Cl)cc2)C1)S(=O)(=O)c1ccc(OC)cc1 across the screens: 3.5	1.4
CC(=O)c1ccc(NC(=O)c2c(-c3ccccc3)noc2C)cc1 across the screens: 0.7	-1.1
CC(C)(C)c1ccc2c(c1)CC(CNC(=O)c1ccccc1F)O2 (stereo not given) across the screens: 2.7	3.6

(next part)
SMILES | NPYLR7 ag | NPYLR7 ag max-min
CC1(C)COC(c2cccn2Cc2ccc(F)cc2Cl)=N1 | 9.1 | 0.5
Cc1ccc(-n2ncc3c(C)nn(Cc4cccc(F)c4)c(=O)c32)c(C)c1 | 3.3 | 0.8
O=C(C(c1ccccc1)n1cccc1)N1CCC(Oc2ccc(C(F)(F)F)cc2)CC1 (stereo not given) | 1.0 | 3.4
CC(NC(=O)c1coc(CN(Cc2cccc(Oc3ccccc3)c2)Cc2ccc3c(c2)OCO3)n1)c1ccccc1 (stereo not given) | 11.1 | 8.9
CCOC(=O)c1[nH]ncc1CN1CCC(Cc2cccc(OC)c2)(C(=O)OCC)CC1 | 4.3 | 1.6
O=C(NC1CCCCC1)c1ccc(-c2ccccc2)cc1 | 10.6 | 8.8
N#Cc1ccc(NC(=O)c2cc3c(F)cccc3s2)nc1 | 0.6 | 3.7
CC1CCc2nc(NCCO)nc(C(F)(F)F)c2C1 (stereo not given) | -4.2 | -4.9
COC(=O)C1CCN(C(=O)Cc2cc(-c3ccc(F)cc3)on2)CC1 | 2.8 | 4.0
CCOC(=O)N1CCN(C2CCCN(c3nc(C)ncc3CC)C2)CC1 (stereo not given) | -3.1 | -8.8
CCc1cccc(N2C(=O)CSC2c2cccc(NC(=O)c3ccc(Cl)cc3Cl)c2)c1 (stereo not given) | -2.8 | 2.9
COc1ccc(F)c(-c2nc(CN(C)Cc3cnc(N)nc3)c(C)o2)c1 | 1.4 | -1.7
Cc1cc(N2C(=O)C3C4CC(C(Br)C4Br)C3C2=O)no1 (stereo not given) | 0.4 | -0.6
Nc1ccn(-c2ccc(Cl)c(Cl)c2)n1 | 22.2 | 14.6
CC(Oc1ccc2c(c1)OCO2)C(=O)NCCCn1nc(-c2ccc(F)cc2)ccc1=O (stereo not given) | 0.8 | 0.4
NCCc1nc(NCc2ccccc2CN2CCCC2=O)c2ccccc2n1 | -11.9 | -9.8
Cc1cccc(C)c1OC1CN(C(=O)C2CCOCC2)C1 | 3.2 | 3.0
Cc1nnc(NC(=O)CCCN2C(=O)c3cccc([N+](=O)[O-])c3C2=O)s1 | 5.2 | 10.0
O=c1[nH]c(CNc2ccc(Br)cc2)nc2ccccc12 | 5.7 | 5.3
CN(Cc1cc(C2CC2)on1)C(=O)c1csc2nc(-c3ccc(F)cc3)cn12 | 0.4 | -3.8

Bioassay records as filed in PubChem.

These rows are one share of the data; count on the stated rates, not on these rows.
